NPYLR7 agonist: mosquito NPYLR7 agonism | HEK293T NPYLR7/Galpha15, GCaMP6s calcium fluorescence | activation, % at 10 µM | hit rate 0.15% among 270,000; in the data active means activation above about 40%;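 further: 0% = vehicle and 100% = reference agonist at the receptor; some compounds past the cut are filed as inactive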
NPYLR7 agonist max-min: further read-out of NPYLR7 agonist, marked with its call; activation, %; measured here: Max-Min RFU normalised activation; some inactives read as strong as hits;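 span of the calcium signal over five minutes; 0% = vehicle and 100% = native peptide agonist; compound fluorescence can raise it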
Numbers without * were called inactive; & = joins results of further samples. A portion of the library; the hit share may differ from the screen's.

nr	SMILES	NPYLR7 agonist	NPYLR7 agonist max-min
1	CCn1cc(C(=O)N2CCN(CC(=O)NC3CCCCC3)CC2)c2nn(-c3ccccc3)c(=O)c-2c1	-2	-7
2	Cc1cccc(NC(=O)CCC2CCN(C(=O)CCN3CCCCO3)CC2)c1	11&1	2&-3
3	CC(C)NC(=O)C1(C)CCN1C(=O)c1ccccc1CCc1ccccc1 (stereo not drawn)	1	0
4	O=C1OCCN1CCNCCC(=O)N1CCCc2ccccc21	-5	-7
5	CCOC(=O)c1nn(Cc2ccc(OC)cc2)c2c1CN(C(=O)CSc1ccncc1)CC2	9	-4
6	CCN(C)C(=O)c1ccccc1N1CCC(NC(=O)c2ccc(C(F)(F)F)cc2)CC1	-11	4
7	Cc1ccccc1CS(=O)(=O)Cc1c(C)noc1C	8	7
8	O=C(COC(=O)C=Cc1ccc(Br)o1)NC1CCS(=O)(=O)C1 (stereo not drawn)	1	6
9	CCCCCNC(=O)c1cc2c(=O)n3ccccc3nc2n1C	-2	-4
10	COc1ccc(CC(=O)Nc2nc(OCCN3CCCC3=O)cnc2-c2cccc(C(F)(F)F)c2)cc1	1	-2
11	CC(=O)c1ccc(OCC(O)CN2CCN(C(=O)c3ccco3)CC2)cc1 (stereo not drawn)	3	1
12	O=C(O)CCSC(F)(F)F	16	8
13	C=CCc1cccc2cc(C(=O)NC(C)c3ccccc3)c(=O)oc12 (stereo not drawn)	4	2
14	O=C(NCc1nnnn1C1CCCCC1)Nc1ccc(F)cc1	3	1
15	Cn1cc(I)c(C(N)=O)n1	-13	-19

Three consecutive records out of the list so far, quoted:
nr	SMILES	NPYLR7 agonist	NPYLR7 agonist max-min
1	CCn1cc(C(=O)N2CCN(CC(=O)NC3CCCCC3)CC2)c2nn(-c3ccccc3)c(=O)c-2c1	-2	-7
2	Cc1cccc(NC(=O)CCC2CCN(C(=O)CCN3CCCCO3)CC2)c1	11&1	2&-3
3	CC(C)NC(=O)C1(C)CCN1C(=O)c1ccccc1CCc1ccccc1 (stereo not drawn)	1	0

Next section
nr	SMILES	NPYLR7 agonist	NPYLR7 agonist max-min
16	CCOC(C)c1nc(C)c(C(=O)NC(CC)c2ccccc2O)s1 (stereo not drawn)	0	1
17	CC(C(=O)NC1CCCCC1)N1CCN(S(=O)(=O)c2ccc(Cl)c(Cl)c2)CC1 (stereo not drawn)	2	3
18	Cc1ccc(C)c(S(=O)(=O)N2CCN(c3nc4nccc(C(C)(C)C)n4n3)CC2)c1	-2	-5
19	CCCC(=O)N1CCCC1(C)C(=O)NCc1sccc1C (stereo not drawn)	5	2
20	CCOC(=O)C1CCN(C(c2cccnc2)c2c(O)cc(C)n(CC)c2=O)CC1 (stereo not drawn)	10	7
21	Cc1nc(-c2ccccc2)sc1C(=O)NCCOc1ccc(-c2ccccc2)nn1	-6	-5
22	Cc1ccc(OC2=NS(=O)(=O)c3cc([N+](=O)[O-])ccc32)cc1	-9	-19
23	CC1CCCN(C(=O)c2ccc(NCC3CCN(S(C)(=O)=O)CC3)nc2)C1 (stereo not drawn)	-2	74
24	CCN1CCN(c2c(CN(CCOC)C(=O)C3CC3)c(C)nn2-c2cccc(F)c2)CC1	1	7
25	Cc1cccnc1C(NC(=O)C1CCN(C(=O)NCCc2ccccc2)CC1)c1cccs1 (stereo not drawn)	2	-7
26	CCn1c(=O)[nH]c2cc(C(=O)N(C)Cc3nnc4ccccn34)ccc2c1=O	-6	-5
27	Cc1[nH]c2ccc3c(ncn3CCC#N)c2c1C	0	-2
28	CCOc1ccc(C2CC(c3cccc(C)c3)=NN2C(=O)CN2CCC3(CC2)OCCO3)cc1 (stereo not drawn)	-2	4
29	O=C(NC(c1ccc(F)cc1)c1ccc2ccccc2n1)C1CCN(Cc2ccc3ccccc3n2)CC1 (stereo not drawn)	3	-10
30	CCN1CC2(CCN(c3ccnc(C)c3)CC2)CC1=O	4	7

Quoted from the listing:
Under NPYLR7 agonist max-min, O=C(NC(c1ccc(F)cc1)c1ccc2ccccc2n1)C1CCN(Cc2ccc3ccccc3n2)CC1 (stereo not drawn) reads -10
Under NPYLR7 agonist, CCOC(C)c1nc(C)c(C(=O)NC(CC)c2ccccc2O)s1 (stereo not drawn) reads 0
Under NPYLR7 agonist, CC1CCCN(C(=O)c2ccc(NCC3CCN(S(C)(=O)=O)CC3)nc2)C1 (stereo not drawn) reads -2
Under NPYLR7 agonist, Cc1[nH]c2ccc3c(ncn3CCC#N)c2c1C reads 0

(continued)
nr	SMILES	NPYLR7 agonist	NPYLR7 agonist max-min
31	COC(=O)C1=NN(C(=O)c2ccccc2F)C(O)(c2ccccc2)C1 (stereo not drawn)	-10	-12
32	Cc1nn(C)cc1CNC(=O)C1CC1	1	-1
33	CC1CC(C)CN(S(=O)(=O)c2cccc(C(=O)N(C)Cc3nc4ccccc4c(=O)[nH]3)c2)C1 (stereo not drawn)	0	-2
34	Cc1cc(S(=O)(=O)NCc2ccccc2)cc([N+](=O)[O-])c1C	5	9
35	c1ccc(Oc2cnc3ccccc3n2)c(CN2CCOCC2)c1	-2	-5
36	CCn1cccc(-c2nnc(SCC(=O)Nc3ccccc3F)n2C)c1=O	1	-1
37	O=C(CSc1nnc(CNC(=O)c2cc(Cl)ccc2Cl)n1-c1ccc(F)cc1)Nc1ccccc1C(F)(F)F	-5	3
38	C[C@@H](NC(=O)Nc1c(F)cccc1F)C(=O)N1CCC(C(=O)N2CCOCC2)CC1	1	-9
39	CN(C)c1ncc(Br)cc1C(=O)N(C)c1nccs1	7	5
40	CC1=Nn2cc(-c3ccccc3)nc2SC1c1ccccc1 (stereo not drawn)	2&-4	1&-5
41	Cc1ccc(C(=O)Nc2ccc(Cl)c3c2C(=O)c2ccccc2C3=O)cc1	-1	-7
42	CCOC(=O)c1c(C)oc2ncn(Cc3cccc(Cl)c3)c(=O)c12	6	4
43	Cc1ccc(CN(C)S(=O)(=O)c2ccc(C(N)=O)cc2)cc1	1	-2
44	O=Cc1c(Cl)[nH]c(=O)n1-c1ccccc1	-3	-4
45	COc1cccc(-n2nnc3c(N4CCN(C(=O)CCC5CCCC5)CC4)ncnc32)c1	-5	-12
46	CCC(C)N(CC(=O)N1CCc2sccc2C1c1ccc(Cl)cc1Cl)S(=O)(=O)c1ccc(Br)cc1 (stereo not drawn)	2	-7
47	COC1CCN(C(=O)NCC(C)Sc2ccccc2)CC1 (stereo not drawn)	-2	-1
48	OCc1cccc(-c2nccc3n[nH]c(C4CCCCC4)c23)c1	1	0
49	CCN(CC)c1ccc(CN(C(=O)c2cccc(F)c2)C(C)C)c(OS(C)(=O)=O)c1	13	19
50	COc1cc(S(=O)(=O)NCc2ccco2)ccc1Cl	0	-1
51	COC(C(=O)N1CCOC(COc2ccccc2)C1)c1ccccc1 (stereo not drawn)	26	18
52	COCCNc1nc(-c2ccc(NC(=O)C(C)(C)C)cc2)c(C)s1	-4	-6
53	COc1ccc2c(c1)OCC(C=C1N=C(c3cccc(C)c3)OC1=O)=C2	16	21
54	COc1cccc(C(CN2CCN(C(=O)NCc3ccccc3OC)CC2)OCc2ccc(C#N)cc2)c1 (stereo not drawn)	4	1
55	O=C(CCN(Cc1ccccc1)c1nc(C2CC2)nc2cc(Cl)ccc12)N1CCN(c2ccccc2F)CC1	26	25
56	CC1(O)C(=O)c2ccccc2N(c2ccccc2)C1=O (stereo not drawn)	-3	-3
57	CCN(CC)C(=O)c1ccc(Cl)c(NC(=O)C[C@@H]2C[C@@H]3C=C[C@H]2C3)c1	4	-3
58	CC(C(=O)NC1CCCCC1)N1CCN(S(=O)(=O)c2ccccc2C(F)(F)F)CC1 (stereo not drawn)	3	-3
59	CCCCNC(=S)NNC(=O)c1nn(C)cc1Cl	1	-2
60	COc1ccccc1-n1c(SCc2ccc(C(=O)NCc3ccncc3)cc2)nnc1-c1ccc(C)cc1	5	9

Screen by screen, as entered above:
Compounds 49 to 59 in NPYLR7 agonist, in turn: 13, 0, 26, -4, 16, 4, 26, -3, 4, 3, 1
Compounds 49 to 59 in NPYLR7 agonist max-min, in turn: 19, -1, 18, -6, 21, 1, 25, -3, -3, -3, -2

(further entries)
nr	SMILES	NPYLR7 agonist	NPYLR7 agonist max-min
61	c1ccc(-c2nnc3sc(-c4ccncc4)nn23)cc1	7&-2	0&-7
62	Cc1csc(CN(C)C(=O)CC2C(=O)NCCN2Cc2ccc(Cl)c(F)c2)n1 (stereo not drawn)	9	-2
63	N#Cc1c(NC(=O)CC23CC4CC(CC(Br)(C4)C2)C3)sc2c1CCCC2	3	13
64	CN(CC(C)(C)N1CCOCC1)[C@@H]1CS(=O)(=O)C[C@H]1O	2	2
65	O=C(Cn1ccccc1=O)Nc1ccc(SC2CCCC2)cc1	-3	-4
66	O=C1OCC(c2ccc(Cl)s2)=C1c1cccs1	-9	-11
67	CS(=O)(=O)c1cccc(C(=O)N(CCCn2ccnc2)c2nc3ccccc3s2)c1	-13	-20
68	CCn1c(C)cc(O)c(C(c2ccncc2)N2CCN(C)CC2)c1=O (stereo not drawn)	18	8
69	CN1CCC2(CC1)CCN(Cc1ccc(C(=O)O)cc1)C2	8	5
70	O=C(Cc1ccc(Cl)cc1)NCCn1nc(-c2cccs2)ccc1=O	0	-2
71	COc1ccc(CN(C(=O)c2ccc(F)cc2)C(C)C)cc1OS(C)(=O)=O	11	14
72	CCc1ccc(NC(=O)COC(=O)c2cc(C(C)=O)n3ccccc23)cc1	9	-2
73	CN(Cc1nc(-c2cccnc2)no1)C(=O)[C@@H]1C[C@H]1c1ccccc1	1	-1
74	COc1ccc(CN(C(=O)C2CCCC2)c2cnn(C)c2)c(OC)c1	-3	-7
75	O=C(COc1ccccc1)N(CC(=O)N1CCc2sccc2C1c1ccc(Cl)cc1Cl)CC1CCCO1 (stereo not drawn)	19	23
76	CCCc1cc(C(=O)OCC)c(NC(=O)CCCCC(=O)OC)s1	-3	-6
77	O=C(CCCc1ccccc1)Nc1ccnn1C1CCN(C(=O)c2ccoc2)CC1	2	-1
78	CCOc1ccccc1CNC(=O)c1cc(-c2ccc3c(c2)OCO3)nc2ccccc12	15	21
79	CC(C)(C)OC(=O)NN=C1CCCCCC1	4	2
80	O=C1C2ON(c3ccc(Br)cc3)C(c3cccnc3)C2C(=O)N1C1CCCCC1 (stereo not drawn)	-2	-5
81	O=C1C(C(c2cccc(F)c2)N2CCN(CCO)CC2)Sc2ncnn21 (stereo not drawn)	1	0
82	Cc1ccsc1CN(C)C(=O)c1cnn2ccccc12	-2	1
83	Clc1ccc(-c2nnc(CSc3nnnn3C3CC3)o2)cc1	5	10
84	CCOCCSc1nc(-c2cccc(F)c2)nc2c1c(=O)n(C)c(=O)n2C	-5	-6
85	COc1ccc(CN2CCNC(=O)C2CC(=O)NCc2ccc3ncccc3c2)c(OC)c1 (stereo not drawn)	11	1
86	O=C(c1ccc(-n2cnnc2)cc1)N1CCC(O)(c2ccc(F)cc2)CC1	2	2
87	COc1ccc2c(c1)N(C(=O)CCc1c(C)[nH]c(=O)c(C#N)c1C)CCCC2	-10	-14
88	COCCNC(=O)c1cccc(Nc2c(Oc3ccc(C(C)C)cc3)cnn(C)c2=O)c1	10	7
89	Cc1cccnc1NC(=O)C1CCN(C(=O)Cc2ccc3c(c2)CCCC3)CC1	5	4
90	CC(=O)c1cccc(NC(=O)CN2C(=O)C3CC=CCC3C2=O)c1 (stereo not drawn)	-4	-5
91	COc1cc(C(=O)NC(C)c2cccc3ccccc23)cc2c1OCCO2 (stereo not drawn)	8	4
92	Cc1nc(SC(C(=O)N2CCCCC2)c2ccccc2)n(CC2CCCO2)c1C (stereo not drawn)	6	7
93	C=C(C)COc1ccccc1C(=O)NC(CC)c1nc(C)no1 (stereo not drawn)	5	5
94	CCCCC(=O)N(C)c1c(CC)nc2c(OCC(N)=O)cccn12	2	8
95	CCCCNc1ncnc2c1nnn2C	1	0
96	CC(CCN1CCC2(CC1)C(=O)N(Cc1ccccc1)C(=O)N2C)c1ccccc1 (stereo not drawn)	11	-4
97	CC(=O)Nc1cc(NC(C)=O)cc(C(=O)OCC(=O)C2CCCCC2)c1	9	5
98	C=CCOc1ccc2c(c1)OCCC2=O	1	7
99	C=CCN(Cc1ccccc1OC)C(=O)C1Cc2ccccc2C1	-2	-4
100	CCN(C(=O)OC(C)(C)C)C(C#N)c1cccnc1 (stereo not drawn)	9	7
101	CCn1c(SCC(=O)N/N=C\c2ccc(C)o2)nc2ccccc21	0	4
102	Cc1cc(C)cc(CCC(=O)N2CCC(NS(C)(=O)=O)CC2)c1	13	2
103	CCCCCCc1ccc(C(=O)NCc2nnc(SCc3ccccc3C)n2-c2ccc(Cl)cc2Cl)cc1	0	12
104	Cc1cc(C(=O)CSc2nc(O)cc(=O)n2CC(C)C)c(C)n1C	-1	-5
105	CC(=O)NCCN=Cc1c(O)[nH]c(=O)[nH]c1=O	-1	1
106	CCCc1[nH]nc2c1C(c1sccc1C)C(C#N)C(=N)O2 (stereo not drawn)	7	4
107	Cc1nc2ccc(-n3ccnc3-c3ccncc3)cc2[nH]1	0	-2
108	CCOC(=O)c1cc(C(C)C)sc1NC(=O)c1cc(OC)cc(OC)c1	13	7
109	O=C(c1ccccc1F)N(Cc1ccccc1Cl)CC1CC(c2ccccc2Cl)=NO1 (stereo not drawn)	23	22
110	CCCCCOc1ccc(C(=O)NC2CCC(C(C)(C)C)CC2)cc1OCCCCC (stereo not drawn)	-9	-12
111	CCN(Cc1nc2ccccc2c(=O)[nH]1)C(=O)c1cnn(-c2ccc(=O)[nH]n2)c1C	-3	-3
112	CCCN(CC(=O)Nc1cc(-c2ccccc2)nn1-c1ccc(F)cc1)C(=O)c1cccc([N+](=O)[O-])c1	-1	4
113	O=C1c2ccc(Br)cc2C(=O)N1CNc1ccc(Oc2ccccc2)cc1	2	-1
114	COCC1(NC(=O)c2ccccc2C2CCNC2)CCCC1 (stereo not drawn)	-14	-17
115	CCCCOc1ccc(C2=N/C(=C\c3cc(OC)c(OC)c(OC)c3)C(=O)O2)cc1	-3	-6
116	COCCN(Cc1cccn1Cc1ccccc1)C(=O)CN(CCC(C)C)C(=O)c1ccc(C(F)(F)F)cc1	13	14
117	COc1cccc(Cc2nsc(N(CCC(=O)N3CCN(c4ccccc4F)CC3)Cc3ccco3)n2)c1	-12	-16
118	Cn1cc([N+](=O)[O-])c(C(=O)Nc2ccc3c(c2)C(=O)NC3=O)n1	6	-7
119	COc1ccc(-c2coc3cc(O)cc(O)c3c2=O)cc1	-10	-13

From PubChem
